High-throughput results (PubChem BioAssay)
Sa growth inh: S. aureus growth inhibition; relative growth, % (no concentration beside the values); S. aureus RN4220 growth, OD600, 20 h, 42 °C; hits give low values; hit rate 0.53% among 170,000;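 active = growth at 42 °C up to 50% and 20 or more points under that at 30 °C, or under 10% at both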;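 note: 300 nL library stock went into each well; scaled to the means of positive and negative controls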
HCMV NEC inh: cytomegalovirus nuclear egress complex inhibition. inhibition, % (concentration not given with the values). hit rate 0.15% among 190,000. HTRF UL50-UL53 interaction, normalized percent inhibition;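 active = both replicates at 50% or more, plus weaker picks with an unusually low signal ratio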;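 note: stock transfer was 100 nL into about 20 µL; 0% = negative control wells and 100% = wells with untagged competitor protein; inactives centre near -12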
GIV Gai3 FP: blocks GIV peptide binding to rat Galpha-i3. Galpha-i3/FITC-GIV peptide fluorescence polarization, 90 min; hits give low values; scaled: aluminum fluoride 0%, vehicle 100%. hit rate 0.42% among 210,000. AID 1224905. P08753. percent of control (FP), % (concentration not given with the values);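 active = replicate mean at 85% of control or lower, very high polarization wells dropped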;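 note: wells of about 15 µL received 100 nL stock; the first replicate is given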
Target sequence (P08753 whole entry, looked up): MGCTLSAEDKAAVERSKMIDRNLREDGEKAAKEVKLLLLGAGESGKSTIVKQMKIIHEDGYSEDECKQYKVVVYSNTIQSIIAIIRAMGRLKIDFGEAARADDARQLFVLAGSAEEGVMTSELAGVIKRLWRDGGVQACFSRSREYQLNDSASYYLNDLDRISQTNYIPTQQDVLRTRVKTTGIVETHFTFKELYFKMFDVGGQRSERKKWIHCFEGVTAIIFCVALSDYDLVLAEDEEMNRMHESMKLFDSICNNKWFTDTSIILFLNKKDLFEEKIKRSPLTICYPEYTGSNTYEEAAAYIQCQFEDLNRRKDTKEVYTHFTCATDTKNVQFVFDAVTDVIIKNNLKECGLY
Sa growth inh second temp: recorded beside Sa growth inh, whose call it bears; relative growth, %; measured here: growth at 30 °C;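 optical density after 20 h as mean of two plates; 100% = untreated growth and lower means inhibition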
Active calls of the source: *; i = inactive; nt = not tested or not shown; & = joins results of further samples.

SMILES	Sa growth inh	Sa growth inh second temp	HCMV NEC inh	GIV Gai3 FP
CCOC(=O)c1ccc2c(c1)N(CC#N)C(=O)C(C)(C)O2	84	86	-10	97
Cc1nc2cc(-c3cccc(F)c3)nn2c(C)c1CCC(=O)NC1CCCCC1	94	91	11	104
COC(=O)Cn1c(=O)n(-c2ccccc2)c(=O)c2oc3ccccc3c21	79	85	-44	104
N#Cc1ccc(CSc2nnc(C3CC3)n2C2CC2)cc1	94	86	-18	nt
O=C(O)c1cc(N2CCN(c3ccccc3F)CC2)nc2ccc(NC(=O)C3CC3)cc12	nt	nt	-41	107
O=C(NCc1cccnc1)c1nn2c(C(F)(F)F)cc(-c3ccc(F)cc3)nc2c1Cl	nt	nt	-26	96
S=c1[nH]nc(Nc2ccccc2)n1-c1ccccc1	90	95	-6	100
CCOC(=O)c1cc(C)ccc1N=Cc1cc(Cl)cc(Cl)c1O	105	60	nt	102
Cc1cc(C(F)F)n2ncc(C(=O)N3CCCCC3)c2n1	107	77	-7	100
O=C(NCc1cccc(C(F)(F)F)c1)c1ccc(=O)[nH]c1	100	93	-7	nt
C=CCc1c(C)nc2nc(SCC(=O)Nc3ccc(OCC)cc3)nn2c1C	125	100	nt	110
O=C(O)/C=C/c1ccc(Br)o1	83	73	-51	nt

Whole records from above.
O=C(O)/C=C/c1ccc(Br)o1 as listed: Sa growth inh = 83; Sa growth inh second temp = 73; HCMV NEC inh = -51; GIV Gai3 FP = nt
Cc1nc2cc(-c3cccc(F)c3)nn2c(C)c1CCC(=O)NC1CCCCC1 as listed: Sa growth inh = 94; Sa growth inh second temp = 91; HCMV NEC inh = 11; GIV Gai3 FP = 104

The list continues:
SMILES	Sa growth inh	Sa growth inh second temp	HCMV NEC inh	GIV Gai3 FP
COc1ccccc1-c1cc(C(=O)O)c2ccccc2n1	98	90	0	102
COc1ccccc1/C=N/O	100	93	0	nt
O=C1CC(c2ccccc2O)=NN1	92	91	-15	nt
CC(C)(C)n1nnnc1C(c1cccnc1)N(Cc1ccccc1)Cc1ccco1 (stereo not given)	103	88	-2	104
Cc1cccc(N2CCn3c2nc2c3c(=O)n(C)c(=O)n2C)c1	91	98	6	110
CCOc1ccc(C(=O)NCc2ccc3[nH]c4c(c3c2)CCCC4)cc1	103	78	nt	106
COc1ccc(CNC(=O)C2(C)Cn3nc(C)cc3C(=O)N2c2cccc(OC)c2)cc1 (stereo not given)	nt	nt	5	97
CCOC(=O)c1cc(C)nc(Sc2ccc(C)cc2)c1C#N	106	96	2	95
CC1CN(c2ncnc3ccsc23)CC(C)O1 (stereo not given)	95	101	0	101
O=c1[nH]c(=S)[nH]c2c1cnn2-c1ccc(F)cc1	93	78	-9	113
O=C(Cc1ccccc1)Nc1nonc1-c1ccccc1	87	90	-20	102
COC(=O)c1ccccc1N/C=C/C(=O)c1ccc(Br)cc1	90	78	-31	nt
COC(=O)CN(C1CCCCC1)S(=O)(=O)c1ccccc1	130	99	-29	107
COc1ccc(-n2nc(C(=O)NC3CCCCC3)c3c4ccccc4n(C)c3c2=O)cc1Cl	nt	nt	-22	104
C/C(=N\OCc1nc(-c2cccc(Cl)c2)no1)c1ccc(Cl)cc1	101	97	2	107
Cc1cc(C)cc(NC(=O)CCS(=O)(=O)c2ccc3c(c2)oc(=O)n3C)c1	82	82	nt	101
CCOC(=O)c1cc(-c2ccc(C)cc2)n(CCCC(=O)NCc2cccs2)c1	97	96	2	102
Cc1csc2nc(CS(=O)(=O)c3ccc(Cl)cc3)cn12	98	86	-36	nt
CC(C)NC(=O)C1CCCCN1S(=O)(=O)c1ccc(Br)cc1 (stereo not given)	nt	nt	-1	108
COc1ccc(C)cc1S(=O)(=O)Nc1cccc(-c2ccc(N3CCCC3)nn2)c1	113	85	nt	104
CC1CCN(c2cc(NC(C)C)c3c4c(onc24)-c2ccccc2C3=O)CC1	nt	nt	-117	-4.4*
O=C(NCc1ccccc1Cl)c1cc2ccccc2o1	111	104	14	104
CSc1ccccc1N1C(=O)C=CC1=O	71	60	-26	106
C=CC(=O)NCc1ccc(-c2csnn2)cc1	95	110	8	99
O=C1OCCC1SC1=N/C(=C/c2ccco2)C(=O)N1c1ccc(OC(F)F)cc1 (stereo not given)	64	90	-73	nt
CCOC(=O)Cn1c2ccccc2n2nc(C)nc12	110	89	-5	101
Cc1ccc(-c2cc(C(=O)NCc3cnn(C)c3)c3cc(Br)ccc3n2)cc1	118	88	i	107
CCOCCCN=C1Sc2nc3cc4c(cc3cc2CN1CC1CCCO1)OCO4 (stereo not given)	116	87	0	100
CC(C)(C)OC(=O)COc1ccc(C#N)cc1	109	95	8	nt
CSc1nn2c(=O)c(C(C)(C)C)nnc2s1	113	93	2	104
CCC1=NN(C(=O)COc2ccccc2C)C(O)(c2ccncc2)C1 (stereo not given)	113	85	-6	102
COc1cccc(NC(=O)C(c2ccccc2)N2CCN(S(=O)(=O)c3ccccc3)CC2)c1 (stereo not given)	99	104	-11	nt
CC(C)(C)NC(=O)CN1C(=O)CCC1=O	95	97	-22	104
CC(=O)Nc1nc2ccccc2n1Cc1ccc(C)cc1	57	24	-16	99
O=c1c(C(CN2CCOCC2)c2ccccc2)nc(-c2ccccc2)nn1CN1CCOCC1 (stereo not given)	97	89	-17	103
Cn1c(=O)c2sccc2n2c(=O)[nH]nc12	nt	nt	-13	101
COc1ccc(CNc2cccc(C(=O)O)c2C)cc1OC	99	97	-6	110
COc1ccc(OC)c(C2=NS(=O)(=O)N(C)C(C(=O)N(C)Cc3ccccc3)=C2)c1	nt	nt	-62	103
CCOC(=O)c1noc(C)c1-c1csc(COc2ccccc2)n1	102	83	-25	102
Nc1c(C(=O)O)sc2ncccc12	95	96	-21	104
CSc1nnc(-n2cccc2)s1	87	83	-15	94
COc1ccc(CNC(=O)c2cc(Nc3ccccc3C)nc3ccccc23)cc1	102	82	-19	101
CNC(=O)c1ccsc1NC(=O)c1cccc(S(C)(=O)=O)c1	79	76	-38	100
COc1ccc(CNC(=O)Cn2c(=O)nc(-c3ccccc3F)c3cc(Cl)ccc32)cc1OC	100	94	nt	108
Cn1nnc2c(NCc3c(F)cccc3F)ncnc21	98	87	nt	92
Cc1nn(-c2ccccc2)c2c1C1(C(=O)Nc3ccccc31)C(C#N)=C(N)O2 (stereo not given)	nt	nt	-12	99
CN1CCCN(c2ccc(NS(=O)(=O)c3ccc(F)cc3)c(C(=O)O)c2)CC1	nt	nt	-18	103
CCCCn1c(N)c(C#N)c2nc3ccccc3nc21	93	75	-66	nt

Gathered by group, the entries above containing a COOH group.
SMILES	Sa growth inh	Sa growth inh second temp	HCMV NEC inh	GIV Gai3 FP
O=C(O)c1cc(N2CCN(c3ccccc3F)CC2)nc2ccc(NC(=O)C3CC3)cc12	nt	nt	-41	107
O=C(O)/C=C/c1ccc(Br)o1	83	73	-51	nt
COc1ccccc1-c1cc(C(=O)O)c2ccccc2n1	98	90	0	102
COc1ccc(CNc2cccc(C(=O)O)c2C)cc1OC	99	97	-6	110
Nc1c(C(=O)O)sc2ncccc12	95	96	-21	104
CN1CCCN(c2ccc(NS(=O)(=O)c3ccc(F)cc3)c(C(=O)O)c2)CC1	nt	nt	-18	103

Additional records follow.
SMILES	Sa growth inh	Sa growth inh second temp	HCMV NEC inh	GIV Gai3 FP
Cc1nc2nc(CNc3ccccc3Cl)[nH]n2c(=O)c1C	nt	nt	-11	107
CCOC(=O)NS(=O)(=O)c1ccc(C)cc1	95	93	-8	nt
CCOC(=O)N1CCN(C(=O)COc2ccc3c(c2)C(=O)CC(C)(C)O3)CC1	97	91	2	100
Cc1ccc(O)c(-n2nc3ccccc3n2)c1	105	60	-9	97
Cc1ccc(NC(=O)c2sc3nc(-c4ccc(F)cc4)cn3c2C)c(C)c1	91	89	nt	109
CC1=C(C(=O)OC2CCCC2)C(c2ccncc2)C2=C(CC(c3ccccc3)CC2=O)N1 (stereo not given)	76	104	3	nt
O=C(O)CN(c1ccccc1)c1ccccc1	71	94	-29	nt
O=C(CCN1N=C(c2ccccc2)CCC1=O)NC1CCCCC1	101	103	-7	110
CC(=O)NOC(=O)c1c(-c2c(Cl)cccc2Cl)noc1C	90	55	-22	105
Cc1ccc(Cn2nc(C)c(C(=O)NCc3ccco3)c2Cl)cc1	86	83	-31	nt
Cc1cc(C)c2c(c1)c(C)cc1nnc(SCc3ccccc3C#N)n12	106	84	-27	104
COc1ccc(OC)c(NC(=O)c2c(NCc3ccc(OC)c(OC)c3)sc3c2CCC3)c1	99	64	nt	105
O=C(C1CCCC1)N1CCc2ccccc21	91	88	6	nt
Cn1cnc(S(=O)(=O)N2CCCC(C(=O)Nc3cccc(C#N)c3)C2)c1 (stereo not given)	112	95	nt	111
O=C(NCc1ccccc1)c1cccnc1Nc1ccccc1	86	57	4	103
O=C(CCC1N=C2c3ccccc3N=C(SCc3ccc(F)cc3)N2C1=O)N1CCN(c2ccccc2)CC1 (stereo not given)	116	77	-7	103
CCn1cc(C(=O)NCCc2ccc(OC)c(OC)c2)c(=O)c2cc(S(=O)(=O)N3CCOCC3)ccc21	102	78	-21	102
CCN(CC)S(=O)(=O)c1cccc(C(=O)NCCCN2CCOCC2)c1	109	96	8	nt
Cc1cc(C)cc(N2C(=O)NC(=O)/C(=C\c3cc(Br)c(N4CCOCC4)o3)C2=O)c1	nt	nt	-22	171
CCOC(=O)c1snc2c(=O)[nH]cnc12	92	96	nt	105
CCc1nnc(NC(=O)c2nc(S(=O)(=O)Cc3ccc(C)cc3)ncc2Cl)s1	11	25	-48	99
CCOc1ccc(S(=O)(=O)N(CC(=O)Nc2ccc(OC)c(Cl)c2)c2ccccc2)cc1	107	90	-17	104
CCOc1ccc(CN(C)C(=O)CNC(N)=O)cc1	85	90	-9	nt
CC1=C(C(=O)Nc2ccccn2)C(c2cccnc2)n2ncnc2N1 (stereo not given)	nt	nt	-11	105
CCOc1ccc(CC(=O)NC2CC(=O)N(c3ccc(C)c(C)c3)C2)cc1 (stereo not given)	104	87	nt	96
CC1=CC(C)(C)N(C(=O)/C=C/c2ccccc2)c2ccc(C)cc21	103	95	nt	95
CCCCC(=O)Nc1ncc(Cc2ccccc2)s1	128	80	-29	nt
CCOc1ccc(NC(=O)Cn2c(C)cc(C)c(S(=O)(=O)c3ccc(OC)c(OC)c3)c2=O)cc1	nt	nt	-15	103
Cc1ccc(NC(=O)CS(=O)Cc2nc(-c3ccc(C)cc3)oc2C)cc1 (stereo not given)	97	79	nt	103
CCN1CCSc2ccc(C(=O)NCC3CCCO3)cc21 (stereo not given)	99	86	-9	103
Cc1cc(C(=O)CSc2ccc(S(=O)(=O)N3CCN(Cc4ccccc4)CC3)cn2)c(C)n1C	107	96	20	nt
CCc1nnc(NC(=O)Nc2ccccc2C(F)(F)F)s1	93	98	nt	103
CC(C)NC(=O)CCCN1C(=O)CCn2nc(-c3cccn3C)cc21	97	88	nt	104
CCOC(=O)c1c(NC(=O)CSc2nc3c(c(=O)[nH]2)CCCC3)sc2c1CCCC2	nt	nt	-6	100
CCN(CC)C(=O)COc1ccc(/C(C)=N/NC(=O)Cc2ccccc2)cc1	91	92	-1	nt
Nc1c(-c2ccc(Cl)cc2)cnc2ncnn12	nt	nt	13&-27	94
CC(C)COCC(CN(Cc1ccccc1)c1ccccc1)N1CCCC1 (stereo not given)	86&86	82&69	-4&-39&5&-22&-49	102&105
Cc1cc(OC(=O)c2ccco2)nc(SCc2c(Cl)cccc2Cl)n1	106	84	-36	96
COc1ccc(-c2noc(CSc3nnc(Cc4ccccc4)n3-c3ccccc3)n2)cc1OC	98	92	4	105
COC(=O)c1ccc(CNC(=O)c2ccc(Oc3ccccc3)cc2)cc1	97	101	9	nt
CCOc1ccc(S)cc1	80	80	-20	nt
N/C(=C\C(=O)c1ccc(Br)cc1)C(F)(F)F	82	75	-9	nt
CC(=O)NCCNC(=O)CCc1nc2sc3c(c2c(=O)[nH]1)CCC(C(C)(C)C)C3 (stereo not given)	nt	nt	-5	96
O=C(CN1c2ccc(Br)cc2-c2ccccc2S1(=O)=O)NCCN1CCOCC1	nt	nt	-13	99
CCCCCOC(=O)C1=C(C)NC2=C(C(=O)CCC2)C1c1cc(Br)c(O)c(OCC)c1 (stereo not given)	nt	nt	4	104
CC(C)c1ccc(Cc2cn3cc(-c4cc5ccccc5oc4=O)nc3s2)cc1	73	87	-41	107
O=C(CSc1nc(C(F)(F)F)cc(=O)[nH]1)NCc1ccco1	96	83	-1	109
C=CCC12CCC(=O)C=C1CCCC2=O (stereo not given)	91	80	3	95
Cc1ccc(C)c(Nc2nc(-c3ccccc3)c3cc(Br)ccc3n2)c1	91	83	-42	103
Cn1c(CNc2ccccc2)nc2ccccc21	108	76	-5&-20	103&106
CCOC(=O)Nc1ccc(C)s1	71	88	4	nt
O=C(NC(=S)Nc1ccccc1Cl)c1ccc(Cl)cc1	97	72	nt	108
CCC(C)NC(=O)c1ccccc1NC(=O)C1CCN(S(=O)(=O)Cc2ccccc2)CC1 (stereo not given)	98	86	-24	103
COc1ccc(NC(=O)CCn2c(=O)[nH]c3ccccc3c2=O)cc1OC	100	89	nt	104
CC12CCC(CC(=O)c3ccccc3)(CC1)CC2	110	97	nt	108
CCOC(=O)CC(NC(=O)Cn1nnc(-c2ccc(C(F)(F)F)cc2)n1)c1ccc(C)cc1 (stereo not given)	81	89	-4	105
Cc1nc(C)c(C(=O)NC2CCCCCC2)s1	77	82	-22	102
